Calb FLC: C. albicans growth modulation with fluconazole; C. albicans CaCi-2 (fluconazole-resistant clinical isolate) + fluconazole, Alamar Blue growth, 48 h; growth inhibition, % (no concentration beside the values); 300,000 compounds, 0.57% hits;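 active = most replicates above 75%; inconclusive = exactly half above 75%; inactive = most below 75%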;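 also: all wells also contain fluconazole at 8 µg/ml as a sub-toxic cotreatment; 0% = median of DMSO wells and 100% = median of geldanamycin control wells; wells of about 8 µL received 7.5 nL stock; the first replicate is given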
T cruzi repl: blocks replication of Trypanosoma cruzi; inhibition, % (test concentration not listed); T. cruzi beta-gal in NIH3T3, luminescence, 90 h; 300,000 compounds, 1.4% hits; AID 1885;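 active = mean inhibition across valid replicates above about 55%, limit read from the data; inconclusive = mean below that limit but half or more replicates reach it; inactive = mean below it, under half of replicates reach it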;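 also: signal also drops with host cell toxicity which is not excluded here; 0% = plate median of DMSO wells and 100% = zero luminescence signal; higher percent means less beta-gal luminescence so fewer parasites; stock transfer was 50 nL into about 50 µL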
B2AR ag: agonists of human beta-2 adrenergic receptor inducing internalization; Am2.2-beta2AR cells, FAP receptor internalization, flow cytometry; reference of the scale not given here; response, % (concentration not given with the values); 340,000 compounds, 0.43% hits;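 active = response above a set limit, near 3 SD of response in nonfluorescent compounds, cut at about 42% in these data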;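 also: stock transfer was 100 nL into about 11 µL; a reference agonist was the positive control; negative values mostly stem from fluorescent compounds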
Target sequence (P07550 whole entry, looked up): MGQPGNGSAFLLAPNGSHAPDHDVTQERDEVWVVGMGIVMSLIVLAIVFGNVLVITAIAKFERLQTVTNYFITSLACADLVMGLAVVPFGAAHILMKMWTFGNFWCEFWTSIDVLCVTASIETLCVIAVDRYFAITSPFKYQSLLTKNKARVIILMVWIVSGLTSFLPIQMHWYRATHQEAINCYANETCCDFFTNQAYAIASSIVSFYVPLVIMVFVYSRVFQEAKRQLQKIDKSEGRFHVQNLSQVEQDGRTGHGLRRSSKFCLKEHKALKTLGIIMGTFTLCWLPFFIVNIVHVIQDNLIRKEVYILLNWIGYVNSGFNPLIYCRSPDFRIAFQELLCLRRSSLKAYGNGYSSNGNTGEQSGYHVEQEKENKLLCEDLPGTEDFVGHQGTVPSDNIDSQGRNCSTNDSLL
A1 inh: inhibitors of the anti-apoptotic protein A1, read as caspase activation; MEF A1-2A-BIM cells, Caspase-Glo 3/7 luminescence, 3 h; percent of clofoctol response, vehicle zero; caspase activation, % (test concentration not listed); 330,000 compounds, 0.066% hits; AID 2462;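 active = over half of replicate activation scores above 10%, or exactly half above 10 with the replicate mean above 10; inconclusive = replicate mean below 10 yet half the replicates above 10; inactive = over half of replicates below 10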;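 also: wells of about 30 µL received 50 nL stock; many hits fall short of the cut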
LANA-H2B inh: blocks KSHV LANA binding to histone H2A/H2B. Q9QR71. 320,000 compounds, 0.6% hits. inhibition, % (no concentration beside the values). AID 2629. cell-free LANA-H2A/H2B peptide, fluorescence polarization; in the data active = inhibition mostly above about 10%, no sharp cut-off; inactive = mostly below about 6.7%;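 also: stock transfer was 7.5 nL into about 10 µL; 0% = median of vehicle wells and 100% = median of positive control wells; one replicate is shown; the record names a cut of 25% in any replicate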
Beta cell apopt: beta cell apoptosis inhibition | INS-1E cytokine-induced death, ATP luminescence, 48 h; percent of positive-control rescue, neutral wells zero | protection from apoptosis, % (concentration not given with the values) | 300,000 compounds, 0.8% hits;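 active = all replicates at 75% or more, or half of them and the mean; inconclusive = half reach 75% but not the mean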;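 also: 0% = cytokine-treated negative control wells and 100% = positive control rescue; higher means more ATP so stronger rescue from cytokine killing; wells of about 40 µL received 100 nL stock; the first replicate is given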
RanGTP-Impb inh: disruptors of Ran-importin-beta complex formation – biochemical, FRET, CFP-Ran, YFP-importin-beta, homogeneous, primary screen. 300,000 compounds, 1.1% hits. cell-free CFP-Ran/YFP-importin-beta FRET ratio. inhibition, % (concentration not given with the values). AID 2216;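 active = most replicates above 15%; inconclusive = exactly half above 15%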;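 also: 0% = DMSO wells and 100% = Ran loaded with GDP instead of GTP; wells of about 40 µL received 100 nL stock; the first replicate is given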
UCH37 DUB inh: blocks the human deubiquitinase UCH37. Q9Y5K5. purified proteasome/UCH37, Ub-AMC cleavage fluorescence. inhibition, % (test concentration not listed). 330,000 compounds, 0.33% hits. AID 588478;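 active = mean of two replicates above 20%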;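 also: 0% = compound-free wells with enzyme and 100% = wells lacking proteasome; stock transfer was 100 nL into about 20 µL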
Target sequence (Q9Y5K5 whole entry, looked up): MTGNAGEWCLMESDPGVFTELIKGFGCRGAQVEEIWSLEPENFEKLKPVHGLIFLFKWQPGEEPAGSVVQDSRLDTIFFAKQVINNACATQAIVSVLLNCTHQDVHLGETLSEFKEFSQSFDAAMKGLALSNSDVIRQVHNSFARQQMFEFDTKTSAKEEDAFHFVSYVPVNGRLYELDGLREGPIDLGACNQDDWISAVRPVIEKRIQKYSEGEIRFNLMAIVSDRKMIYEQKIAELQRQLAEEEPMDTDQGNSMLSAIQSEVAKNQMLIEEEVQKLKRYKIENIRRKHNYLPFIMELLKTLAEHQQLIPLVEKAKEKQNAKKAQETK
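Reagent: Ub-AMC substrate; assay system: Proteasome-associated human UCH37 deubiquitinase; controls: no-proteasome and no-compound wells; read-out: % inhibition of Ub-AMC cleavage fluorescence; timing: 30 min preincubation with enzyme, 25 min cleavage at room temperature; signal: AMC fluorescence from Ub-AMC cleavage, excitation 355 nm, emission 460 nm; buffer or medium: Tris-HCl pH 7.4 plus ovalbumin, ATP-MgCl2, DTT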
Starred values were filed as active, the others as inactive; ? = inconclusive; · = no result given.

Structure	Calb FLC	T cruzi repl	B2AR ag	A1 inh	LANA-H2B inh	Beta cell apopt	RanGTP-Impb inh	UCH37 DUB inh
CCN(CC)C(=O)c1cnn(-c2ccccc2)c1NC(=O)c1ccccc1F	-9	6	4	-0.1	8.3	·	-0.3	0.4
COc1ccc(C(=O)Nc2ccc3c(c2)OCCO3)cc1[N+](=O)[O-]	27	-2	4	0.2	3.0	·	-0.4	3.3
CCOC(=O)C(=O)/C(C#N)=C/Nc1ccc(Cl)cc1	32	3	5	-0.6	0.6	5	0.8	0.6
CC(C)=C(NC(=O)c1ccccc1)C(=O)N/N=C/c1ccc(O)cc1	34	-10	11	0.9	5.1	-3	0.9	·
O=C(COC(=O)c1ccco1)c1ccccc1	-2	-18	-1	-4.5	-7.7	-3	1.2	1.0
CC(=O)c1ccc2c(c1)N(CCCN1CCC(CCO)CC1)c1ccccc1S2	·	·	7	0.5	-3.0	·	·	3.7
CCOc1ccc(/C=C/C2=CC(C)(C)NC(=S)N2)cc1	110*	26	2	1.4	-2.5	1	3.0	4.4
CNCc1ccccc1OCC(=O)Nc1ccccc1	6	0	3	-1.0	-4.0	-3	6.5	1.3
COc1ccc(NC(=O)Cn2nnc(-c3ccccc3NC(=O)c3cccs3)n2)cc1	-10	-24	-5	0.9	1.5	29	3.5	-1.7
CC1(C)OC(=O)C(=CNCC(=O)NCC(=O)O)C(=O)O1	2	-6	6	1.0	0.6	-5	-0.1	3.7
Cc1ccc2nsnc2c1NC(=O)c1cccnc1Cl	-13	-7	2	0.4	1.1	4	4.5	-0.3
Cc1c(C(=O)Nc2cccc(Cl)c2)cn2c(nc3ccccc32)c1C#N	8	30	-19	-0.5	4.4	36	11	-182
CCc1ccc(NC(=O)N(CCCN2CCOCC2)Cc2cccs2)cc1	0	-5	-4	0.5	1.9	·	2.9	3.9
CC(=O)c1ccccc1NC(=O)COC(=O)C1CCCN1S(=O)(=O)c1ccccc1F (stereo not given)	·	·	0	0.4	4.4	-3	·	0.0
COc1ccc(NC(=O)N2CCCC2C(=O)NCc2cccs2)cc1 (stereo not given)	-1	-6	-4	0.2	0.0	0	0.3	3.3
Cc1cccc2sc(NC(=O)CCNS(=O)(=O)c3cccc4nonc34)nc12	·	·	3	-0.6	-0.4	9	·	3.4
CCN(CC)c1c([N+](=O)[O-])c(=O)n(CC)c2ccccc12	0	3	-8	-0.3	3.7	1	1.8	8.2
Oc1cccc(NC(=S)Nc2ccccc2)c1	13	-20	14	-0.2	5.2	-5	-0.3	3.8
CCCc1nnc(NC(=O)c2ccc(N3C(=O)C4C5C=CC(C5)C4C3=O)cc2)s1 (stereo not given)	-10	-5	-3	0.3	1.0	-1	-1.6	2.9
CCOC1OC(=O)C(Cl)=C1Nc1ccc(C)cc1 (stereo not given)	?	-2	12	0.3	-2.1	·	-0.3	0.8
O=C(N/C(=C/c1ccc(Cl)cc1)C(=O)N1CCCCC1)c1ccco1	-5	-4	6	-0.6	-2.3	-3	-2.1	2.9
COc1ccc(NS(=O)(=O)c2ccc(C(=O)NCC3(N4CCOCC4)CCCCC3)cc2)cc1	·	·	11	-0.6	0.0	-5	·	2.1
O=C(O)C1CN(c2ncccc2[N+](=O)[O-])C1	1	-11	-5	1.1	2.2	0	-2.6	2.3
COC(=O)C1(Cc2ccccc2)NC(c2ccccc2C)C2C(=O)N(c3ccc4c(c3)OCO4)C(=O)C21 (stereo not given)	23	16	-8	-0.2	-3.2	-5	5.6	3.0
O=C(NNC(=O)C1CCN(c2ncccn2)CC1)c1ccc(Cl)cc1	6	-6	6	-0.7	1.9	1	-6.5	-6.5
CSc1ccc(CN(C)CC(=O)Nc2ccccc2C(=O)NC2CC2)cc1	·	·	4	0.7	-7.3	2	·	3.8
CC(=O)N[C@@H](CC(=O)O)C(=O)O	·	·	3	-0.3	2.6	-4	·	1.1
Cc1ccc(S(=O)(=O)NCC2CCC(C(=O)NCc3ccccn3)CC2)cc1 (stereo not given)	4	0	-2	0.2	-7.6	-15	-3.9	1.0
Cc1nnc(SCC(=O)c2ccc([N+](=O)[O-])cc2)s1	-5	4	5	0.0	-0.3	4	-1.0	2.1
CC1SC(c2cccc(Cl)c2)NC1=O (stereo not given)	-1	-17	0	-1.8	2.0	0	-5.1	4.7
CN(CCc1ccccn1)C(=O)CCC1CCCN(C(=O)CN2CCCCCC2)C1 (stereo not given)	3	2	-6	0.0	-3.0	0	1.7	0.1
Cc1cc2cccc(C)c2nc1SCC(=O)NCC1CCCO1 (stereo not given)	1	-3	-4	-0.3	-1.6	0	3.4	3.4
O=C(OCCCN=C1NS(=O)(=O)c2ccccc21)c1ccccc1F	-12	-11	-2	0.7	0.4	2	1.8	5.7
COCCN(Cc1cc2c(C)cc(C)cc2nc1Cl)C(=O)c1ccccc1F	?	-20	-9	-0.5	-1.4	22	2.7	-0.5
Cc1ccc(C(=O)NN2CCOCC2)cc1[N+](=O)[O-]	-2	13	-1	0.5	-3.0	-3	-2.0	-1.1
Oc1ccccc1C1=Nc2ncnn2C(c2ccc(F)cc2)C1 (stereo not given)	2	9	-5	-0.5	0.1	2	0.6	5.4
O=c1c(-c2ccccc2)c(O)cc(-c2ccncc2)n1-c1ccc(Cl)cc1	-1	4	-7	-0.1	-0.5	-5	-1.0	-6.0
CN1CCN(NC(=O)c2ccc(F)cc2)CC1	-8	18	-4	-0.1	1.9	-7	5.4	5.6
Cc1ccc2c(c1)c1c3n2CCN(CCC(=O)O)C3CCC1 (stereo not given)	9	-4	2	0.9	2.5	-2	-1.6	1.9
O=C(Nc1ccon1)c1ccc(Br)s1	3	-1	-11	-1.0	0.3	-2	0.6	0.8
Cn1c(SCc2cccc(Br)c2)nc2c1c(=O)[nH]c(=O)n2C	4	-4	10	0.3	-5.0	5	0.2	3.9
CC(C)c1ccc2oc(=O)cc(CN3CCN(Cc4ccccc4)CC3)c2c1	14	36	-3	0.7	-0.8	-2	-2.0	0.1
CN1CCN(c2ccccc2NC(=O)c2ccc(-c3ccc(Cl)c(Cl)c3)o2)CC1	-4	39	4	-0.1	0.4	30	1.2	-2.1
O=C(Nc1ccc(Br)cc1)c1cccc(N2C(=O)C3C4C=CC(C4)C3C2=O)c1 (stereo not given)	·	2	1	0.3	-7.8	-9	·	5.4
CCP(=O)(c1ccccc1)C(C)(C)O (stereo not given)	15	·	-42	1.2	-8.4	-4	·	-4.0
COc1ccc(C(=O)C2CCCN(Cc3ccc4c(c3)OCCO4)C2)cc1F (stereo not given)	-7	39	-8	-0.2	-2.1	-1	3.1	-1.1
O=C(Cn1cc2c(n1)CCCCC2)Nc1ccccc1Cl	-3	-3	-18	0.1	4.2	-6	-3.7	5.0
Cc1c(Br)ccc(NC(=O)c2ccccc2[N+](=O)[O-])c1C	14	0	-1	1.3	4.8	1	-1.4	4.8
CCCc1cc(=O)[nH]c2nnc(SCC(=O)Nc3nccs3)n12	-5	2	-1	0.6	7.6	-5	-6.6	-0.9
Cc1nc2ccc(Br)cc2c(=O)n1Cc1cccs1	-5	18	-7	-0.5	-3.5	6	-0.6	4.3

(continued)
Structure	Calb FLC	T cruzi repl	B2AR ag	A1 inh	LANA-H2B inh	Beta cell apopt	RanGTP-Impb inh	UCH37 DUB inh
CCOC(=O)C1CCN(C(=O)c2cccc(N3C(=O)NC4CC3(C)Oc3ccc(C)cc34)c2)CC1 (stereo not given)	-3	0	14	0.6	-3.6	-2	23	3.1
COc1cc2[nH]c(-c3cccc(F)c3)cc(=O)c2cc1OC	-7	6	-8	1.2	2.4	1	-0.7	-36
COc1ccc(/C(C)=N/OCC(=O)N=Nc2c(O)[nH]c3ccc(Br)cc23)cc1	60	11	-5	-1.3	-4.3	-5	1.3	·
O=C(CN1c2ccccc2Sc2ccccc21)N/N=C/c1ccc(Cl)cc1	-8	·	5	0.1	2.6	11	-2.4	·
CC(C)CC1NC(=O)N(Cc2nc3ccccc3s2)C1=O (stereo not given)	-4	5	2	-0.5	5.6	-3	1.1	-1.9
CC(=O)N(C)C1=C(N2CCOCC2)C(=O)c2ccccc2C1=O	13	-113	1	-0.9	-2.0	125*	2.0	22*
Cc1ccc(S(=O)(=O)N2CCN(C(=O)c3cc4c(s3)CCCC4)CC2)c(C)c1	·	·	0	0.2	-1.8	1	·	2.6
CC(=O)Oc1ccc(-c2csc(Nc3ccc(Cl)cn3)n2)cc1	-38	39	2	-1.6	5.5	·	4.7	-1.0
CCOc1ccc(S(=O)(=O)N/N=C2/CC(c3ccccc3)Oc3ccccc32)cc1 (stereo not given)	-7	34	0	0.2	-1.1	3	1.1	·
COc1ccccc1-n1c(CCn2nc(C)c(Br)c2C)n[nH]c1=S	-3	21	7	1.9	1.3	-7	-3.5	0.7
O=C(NCc1cccc(F)c1)c1cccc2c1C(=O)c1ccc(N3CCOCC3)cc1S2(=O)=O	·	·	9	0.5	-1.7	3	·	-1.9
Cc1ccc(-c2ccc(/C=C3\SC(N4CCOCC4)=NC3=O)o2)cc1	-4	66*	3	-0.2	-7.4	3	?	·
O=C(Nc1cccc2ncccc12)c1cc(Br)ccc1Cl	0	-2	-4	-0.4	-1.4	-6	-2.4	2.9
O=c1c2c(ncn2C2CCCC2)n(Cc2ccccc2)c(=O)n1CCOc1ccc(Br)cc1	5	38	2	0.1	-7.2	2	-0.4	6.4
Cc1csc(SCC(=O)Nc2ccc(Cl)cn2)n1	4	-7	2	-0.1	-4.3	-16	-0.6	-2.4
Cc1cc(C)cc(SCc2noc(C(=O)NC(C)C)c2C(=O)NC(C)C)c1	-5	-7	1	-0.6	2.2	1	-1.0	3.6
O=C(Cc1ccccc1[N+](=O)[O-])OCN1C(=O)c2ccccc2C1=O	-1	0	9	-0.2	-0.5	0	1.0	5.4
N#Cc1nc(-c2ccccc2)oc1N1CCN(C(=O)c2ccco2)CC1	6	5	-10	2.1	0.8	0	0.9	-72
COc1ccc(CNC(=O)C(C)Sc2nc3ccccc3c(=O)n2CCCN2CCOCC2)cc1 (stereo not given)	3	40	1	0.7	-2.5	6	0.3	0.0
O=C(CCc1ccc(S(=O)(=O)NCCc2ccccc2)cc1)Nc1ccc2c(c1)OCO2	35	5	-6	-0.5	-1.0	8	1.1	2.7
CCNC(=O)CC1C(=O)N(c2cccc(OC)c2)C(=O)N1CCOC (stereo not given)	-7	8	8	1.1	-0.6	·	-1.2	5.9
CCN(CC)S(=O)(=O)c1cccc(N=Nc2c(O)c3ccccc3oc2=O)c1	1	-24	-3	-1.0	5.8	1	-4.7	7.3
COc1ccc(OC)c(S(=O)(=O)N2CCC(C(=O)Nc3cccc(C)c3C)CC2)c1	1	31	-2	1.2	-1.0	-2	-1.5	2.2

Screening data deposited in PubChem BioAssay by several laboratories.
